Sfp inh – blocks B. subtilis Sfp PPTase activity. Q9F4F7. Biochemical Sfp PPTase activity, qHTS. Potency, µM, for inactives: max response, negative = inhibition, actives largely listed as inhibitors. actives 3.5% (n = 310,000). AID 1490; active = well fitted inhibition curve with a large enough effect; inconclusive = small, poorly fitted or top-dose-only effect, or another doubt; inactive = no such curve, though single readings can be large or run the other way;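 note: the enzyme is Sfp with the accession as filed and its product quenches rhodamine fluorescence; potency is the fitted concentration of half-maximal effect; 0% = enzyme reaction without inhibitor and -100% = no enzyme wells; top concentration of the series not given in the record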
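With Hepes-Na pH 7.6 buffer containing 10 mM MgCl2, Sfp (15 nM) modified BHQ-2-YbbR (12.5 uM) using rhodamine-CoA (5 uM). Two reads 30 minutes apart at 525/598 nm yielded each well's rate.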
TRPV1 potentiator – human TRPV1 potentiation | actives 0.02% (n = 320,000) | TRPV1-expressing cells, Fluo-8 calcium influx, capsaicin EC20 potentiation; host cell line not named in the record; control for the full effect not named in the record | Q8NER1 | potentiation, % at 8.33 µM; active means potentiation above 80%; inconclusive means 30% to 80%; inactive means below 30%; note: 0% is about no effect
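Cells expressing TRPV1 were dye-loaded with Fluo-8 and read kinetically: 10 s baseline, 3 min after compound (agonist portion), then 2 min after EC20 capsaicin (allosteric enhancer portion). Calcium-bound dye fluorescence at 480/520 nm.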
ClpP mod – qHTS Assay for Activators of ClpP; ATP-dependent Clp protease proteolytic subunit (Bacillus subtilis (strain 168)), P80244; purified B. subtilis ClpP, FRET peptide cleavage, 20 min; Potency, µM (highest dose often 57.5 µM), without a hit: at the top dose activity change, negative = active; actives 1.9% (n = 340,000); active = well fitted falling curve with a large enough effect; inconclusive = small, poorly fitted or top-dose-only effect; inactive = no such curve, though single readings can be large or run the other way; note: potency is the fitted concentration of half-maximal effect; the source files actives as falling curves though it sought activators and does not explain the sign; nearly all actives have a fitted effect of over 65% in size; many hits overshoot -100%
Target sequence (P80244 whole entry, looked up): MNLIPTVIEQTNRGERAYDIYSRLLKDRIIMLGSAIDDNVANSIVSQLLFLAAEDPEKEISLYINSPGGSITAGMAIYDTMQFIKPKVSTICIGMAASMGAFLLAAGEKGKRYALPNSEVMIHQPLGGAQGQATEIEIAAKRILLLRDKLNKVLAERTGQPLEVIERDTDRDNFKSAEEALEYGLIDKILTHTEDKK
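Buffer: 100 mM Tris/HCl pH8, 100 mM KCl, 0.05% low protease BSA, 2.5% glycerol, 0.01% Tween-20. ClpP 10 microg/mL final; 20 min RT; delta FRET normalized to ADEP and DMSO controls.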
D2 PAM – potentiates the human D2 dopamine receptor allosterically; DiscoveRx D2 beta-arrestin cells, luminescence, 90 min; 100% = 57 uM dopamine signal; P14416; actives 0.23% (n = 360,000); potentiation, % (no concentration beside the values); active = potentiation of 50% or more; inconclusive = 30% to 50%; inactive = 30% or less;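 note: compound concentration not given in the record; tested on top of an EC20 dose of dopamine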
Target sequence (P14416 whole entry, looked up): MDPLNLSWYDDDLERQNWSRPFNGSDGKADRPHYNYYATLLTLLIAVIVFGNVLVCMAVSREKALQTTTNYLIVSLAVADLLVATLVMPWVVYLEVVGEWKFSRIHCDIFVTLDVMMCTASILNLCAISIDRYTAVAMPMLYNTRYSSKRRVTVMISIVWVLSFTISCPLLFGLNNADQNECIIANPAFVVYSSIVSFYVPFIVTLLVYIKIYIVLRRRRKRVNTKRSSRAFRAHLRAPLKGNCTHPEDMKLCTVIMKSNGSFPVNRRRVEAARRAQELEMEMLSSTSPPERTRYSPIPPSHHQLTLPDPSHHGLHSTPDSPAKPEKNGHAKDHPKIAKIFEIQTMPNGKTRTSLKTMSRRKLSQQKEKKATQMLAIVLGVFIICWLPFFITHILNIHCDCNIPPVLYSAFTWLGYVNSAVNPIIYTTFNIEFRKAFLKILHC
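D2 cells co-treated with compound plus 50 nM dopamine (EC20) for 90 min at 37 deg C to detect potentiation. Beta-arrestin recruitment was read as enzyme-fragment luminescence after 1 h at ambient temperature. Full response was set by 57 uM dopamine.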
gsp antagonist – antagonizes gsp, the McCune-Albright syndrome mutation; gsp-mutant cells, cAMP HTRF, 30 min; control for the full effect not named in the record; Potency, µM (titrated, usually from 76.9 µM), for inactives: at the top dose activity change, negative = inhibition, actives largely listed as inhibitors; actives 0.4% (n = 340,000); AID 624288; active = falling curve of any shape with a large fitted effect; inconclusive = falling curve, mostly with a smaller effect; inactive = flat or rising curve; cell line not stated here;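 note: intracellular cAMP measured with PDE inhibitor Ro 20-1724 present during compound exposure; potency is the fitted concentration of half-maximal effect; % is set by controls: 0 for no effect and ±100 for the full control effect; nearly all actives have a fitted effect of over 65% in size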
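Cells, 2000/well, grown 16–24 h in DMEM 10% FBS with 0.5 mg/ml G418, then compounds plus […] (300 uM addition stock), 30 min at 37C. cAMP read by HTRF (cAMP-d2 and anti-cAMP antibody-K in lysis buffer) after 30 min RT.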
Menin MLL FP FL – displaces fluorescein MLL peptide from human menin; AID 1766; 290,000 tested, under 10 active; FP activity change, % at 61.4 µM; Fluorescence polarization, fluorescein-MLL peptide displacement from menin; inconclusive = falling polarisation curve, or a change in total fluorescence; inactive = total fluorescence flat and polarisation flat or rising; no compound was filed as active; the % refers to the polarisation; negative = inhibition;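 note: % of control where 0% means no effect; inhibitors lower the polarisation; unlabelled MLL peptide was the positive control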
gsp ag – activates gsp, the McCune-Albright syndrome mutation; actives 0.13% (n = 340,000); Potency, µM (series often up to 76.9 µM), without a hit: top-dose activation (cAMP increase), hits mostly activators; gsp mutant cells, cAMP HTRF, 30 min; control for the full effect not named in the record; AID 624287; active = well fitted activation curve with a large enough effect; inconclusive = small, poorly fitted or top-dose-only effect, or another doubt; inactive = no such curve, though single readings can be large or run the other way; cell line not stated here;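 note: phosphodiesterase inhibitor Ro 20-1724 added with compounds to block cAMP breakdown; potency is the fitted concentration of half-maximal effect; nearly all actives have a fitted effect of over 60% in size; about a fifth of the inactives were tested at one dose only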
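Cells in DMEM/10% FBS with G418 were pretreated with compounds in DMSO plus […] (300 uM stock) for 30 min at 37C. cAMP was measured by HTRF (cAMP-d2 plus anti-cAMP antibody-K) after 30 min at room temperature.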
* hit, by the source's call; ? = inconclusive; nt = no result given; & = joins results of further samples; [ ] = remark or other dose.

structure	gsp ag	Sfp inh	gsp antagonist	TRPV1 potentiator	D2 PAM	ClpP mod	Menin MLL FP FL
CCn1ncc(Br)c1C(=O)Nc1cc(C)cc(C)c1	-7%[15.4 µM]	1%	5%	-22	-4	8.2%	-4.9
CC(C)c1csc(CN2CCC(CO)(Cc3cccc(F)c3)CC2)n1	-14%[15.4 µM]	-4%	-3%	1	-9	-5.1%	5.6
CCC(=O)OC1(C)C(=O)C=C2C=C(CCCC(=O)OC)OC=C2C1=O (stereo not given)	nt	13%	-5%	nt	1	-0.7%	5.5
O=C(N/N=C/c1c[nH]c2ccccc12)c1cc(-c2ccc(-c3ccccc3)cc2)n[nH]1	-34%[inhibitor]	9%	0%	-2	22	-20%	-0.5
CC(=O)OCCCCON1C(=O)c2ccccc2C1=O	?	6%	0%	-14	-12	1.9%	0.5
CCN1CCN(C(=O)CSc2cc(=O)n(CC)c3ccccc23)CC1	?	21%	-14%	12	-19	?	5.8
CCOC(=O)N1CCC(N(CCOC)C(=S)Nc2cccc(SC)c2)CC1	-25%	6%	-13%	-5	2	nt	-2.0
O=C(NC(=S)NC1CCS(=O)(=O)C1)c1cccc([N+](=O)[O-])c1 (stereo not given)	11%	-3%	3%	0	11	2.1%	nt
Fc1ccccc1NC(=S)N/N=C/c1ccccc1Br	?	5%	0%	3	-20	1.2%	0.4
C=CCn1c(=O)c(C(=O)NCCN(CC)CC)c(O)c2ccccc21	7%	5%	11%	-7	-12	-1.9%	0.8
COc1ccc(NS(=O)(=O)c2cccc(C(=O)NCC(c3ccccc3)N(C)C)c2)cc1 (stereo not given)	-29%	nt	4%	11	-33	-3.4%	nt
CNC(=O)/C(C#N)=C/c1c(N2CCN(c3cccc(Cl)c3)CC2)nc2c(C)cccn2c1=O	-2%[15.4 µM]	-14%	-24%	-24	-5	1.7%	3.0
CN(CC(=O)NCC1CCCCC1)S(=O)(=O)c1ccc(Cl)cc1	0%[15.4 µM]	4%	9%	-17	-4	nt	-0.4
Cc1nnc(SCCC(=O)Nc2ccccc2Cl)o1	-25%[15.4 µM]	7%	-2%	-28	-2	6.7%	-6.7
CC1=C(C(=O)Nc2cccc(C(=O)NC(C)C)c2)SCCO1	2%[15.4 µM]	-9%	-2%	23	3	nt	11
N#Cc1ccc(COC(=O)c2ccc(N3CCCC3)c([N+](=O)[O-])c2)cc1	14%[15.4 µM]	1%	6%	-7	-5	nt	1.8
COc1ccc(C(=O)NC(=S)Nc2ccccc2N2CCOCC2)cc1[N+](=O)[O-]	-5%	-7%	-14%	-10	-34	0.6%	6.9
CCOc1ccc(N2CC(C(=O)NCc3ccccc3)CC2=O)cc1 (stereo not given)	2%	9%	0%	9	-2	-1.5%	1.3
O=C1OCCN1C(=O)[C@H]1[C@H](c2ccc([N+](=O)[O-])cc2)C(c2ccc(F)cc2)=NN1c1ccc(Br)cc1	nt	-29%	-2%	nt	nt	-4.0%	-3.8
O=C(O)c1ccccc1NC(=S)NC(NC(=O)c1ccccc1[N+](=O)[O-])C(Cl)(Cl)Cl (stereo not given)	23%	?	-10%	20	3	-28%	2.1
O=C(O)C1CCCNC1 (stereo not given)	nt	10%&12%	0%	5	-1	0.7%	-0.1&-3.7&-5.0
Nc1ccc(Sc2nc3ccccc3[nH]2)cc1	2%	4%	-6%	22	-4	0.2%	-0.5
CCCc1cc(=O)n2[nH]c(SCc3ccc(Cl)cc3)nc2n1	?	6%	13%	15	-29	1.2%	-1.7
N#Cc1ccsc1NC(=O)c1ccc(Cl)c([N+](=O)[O-])c1	-9%	-3%	?	-4	-18	0.6%	3.6
Cc1ccc([N+](=O)[O-])c(C)[n+]1C	-41%[inhibitor]	-25%	-2%	-6	-3	-1.9%	-3.5
Cc1ccc(-c2nc(CS(=O)(=O)CC(=O)NC3CCCCC3C)c(C)o2)cc1 (stereo not given)	6%	18%	-3%	3	-2	-4.5%	0.7
Nc1c(Cl)cc(-c2csc(N3CCCC3c3nc4cc(Cl)c(N5CCCCC5)cc4n3CCOCCO)n2)cc1Cl (stereo not given)	-19%	nt	-17%	nt	-8	0.5%	nt
O=C(NC1CCCc2c1cnn2-c1ccc(F)cc1F)c1ccccc1N1CCOCC1 (stereo not given)	-35%[inhibitor]	0%	-5%	-4	-9	-10%	0.4
N#Cc1ccccc1OCC(=O)NCC(c1cccs1)N1CCOCC1 (stereo not given)	?	8%	1%	-5	4	0.5%	-2.4
Cc1ccc(Cl)cc1NC(=O)C1CC1c1ccccc1 (stereo not given)	-48%[inhibitor]	2%	-12%	7	-4	nt	-2.9
COc1ccccc1NCC(=O)NC(=O)NC1CCCCC1	-20%	nt	-10%	nt	-6	nt	nt
Cc1nn(C)cc1/C=N\NC(=O)c1ccc(Cn2cc(Cl)cn2)cc1	1%[15.4 µM]	8%	-7%	-5	-9	0.3%	4.5
CCN(C(=O)COC(=O)C1CCN(S(=O)(=O)c2ccc3c(c2)OCCO3)CC1)C1CCS(=O)(=O)C1 (stereo not given)	2%	nt	-2%	14	-2	?	nt
CSCC[C@H](NC(=O)C1=NN(c2c(F)c(F)cc(F)c2F)C(=O)CC1)c1nc2ccccc2[nH]1	-14%	11%	2%	-3	-3	-0.3%	0.1
O=[N+]([O-])c1ccc(OCCCn2cncn2)cc1	-1%[15.4 µM]	10%	5%	9	2	62%	-1.8
CCC(C)c1ccccc1N1CC(C(=O)N2CCN(c3ccccc3)CC2)CC1=O (stereo not given)	1%	nt	-2%	nt	10	1.4%	nt
O=C(O)C12C3CCC(O3)C1(C(=O)O)C1CCC2O1 (stereo not given)	3%	nt	-6%	nt	-15	0.8%	nt
CN(c1ccc(F)cc1)S(=O)(=O)c1ccc(Cl)c(C(=O)Nc2ccc3c(c2)CCC3)c1	-24%	8%	2%	10	-6	23%	6.4
COc1cc(/C=C2\SC(=S)N(c3cccnc3)C2=O)ccc1O	4%	-25%	2%	5	-13	-1.3%	?
CCOc1ccc(-c2cc(CCCC(=O)NCCc3ccc(OC)c(OC)c3OC)no2)cc1	-33%[inhibitor]	26%	3%	6	-4	0.2%	1.2
COc1ccc(-c2csc(NC(=O)CSc3nnnn3C)n2)cc1OC	?	nt	11%	-7	0	0.4%	nt
O=C(Nc1cnc2ccccc2c1)N1CCCCC1	?	16%	4%	5	-16	-30%	-2.2
COc1cc2c(cc1OC)CN(c1nc(CN3CCCCC3)nc3sc4c(c13)CCCC4)CC2	-8%[15.4 µM]	?	12%	2	-21	-1.7%	14
Cc1nc(SCC(=O)Nc2c(C)n(C)n(-c3ccccc3)c2=O)n[nH]1	4%	-13%	5%	-14	-24	-0.8%	-0.2
CCOc1ccc2c(c1)C(=NNC(=O)c1ccccn1)c1cc(OCC)ccc1-2	-21%	nt	-5%	nt	-4	-0.3%	nt
COC(=O)C1=C(CN2CCCc3ccccc32)NC(=O)NC1c1ccc(F)cc1 (stereo not given)	-4%	-6%	11%	-4	0	-12%	8.1
CCCCNC(=O)C1CCN(Cc2ccc(OCc3ccccc3)cc2)CC1	-3%	6%	10%	0	-20	20%	1.0
O=C(Nc1cc(S(=O)(=O)N2CCOCC2)ccc1N1CCOCC1)c1cccc(Cl)c1	?	nt	nt	nt	-7	-0.6%	nt
O=c1[nH]cc(C(F)(F)F)cc1NS(=O)(=O)c1ccc([N+](=O)[O-])cc1	-1%[15.4 µM]	2%	-6%	5	7	nt	2.8
COc1ccc(Cc2nc3ccc(C(=O)NCc4cccc(C)n4)cc3o2)cc1OC	-12%	nt	nt	nt	-4	-1.5%	nt
CC(=O)OC1c2ccccc2C(=O)N1Cc1ccccc1 (stereo not given)	-43%[inhibitor]	-8%	-3%	-5	-9	-2.4%	3.4
Cn1c(=O)c2ncn(CC(=O)Nc3ccc4c5c(cccc35)CC4)c2n(C)c1=O	32µM*	-17%	-3%	19	-23	1.2%	4.6
CCCCn1c(N)c(N(Cc2ccccc2OC)C(=O)c2sccc2C)c(=O)[nH]c1=O	-4%	nt	9%	-10	20	4.0%	nt
CCOC(=O)c1c(NC(=O)COc2ccccc2F)sc2c1CC(C)(C)NC2(C)C	-12%	nt	9%	2	8	9.2%	nt
Cc1c(C(=O)OC/C(O)=C(\C#N)c2nc3ccccc3[nH]2)oc2ccccc12	15%[15.4 µM]	10%	-1%	5	2	nt	?
CC(=O)C1=C(O)C(=O)N(Cc2ccco2)C1c1ccc(F)cc1 (stereo not given)	6%	45µM*	-8%	6	-6	-1.1%	-1.7
O=C(NCCN=C1NS(=O)(=O)c2ccccc21)c1ccco1	13%	15%	3%	-2	-2	-0.5%	-0.4
CCNS(=O)(=O)c1ccc(Br)c(C(=O)OC(C)C(=O)NCC2CCCCC2)c1 (stereo not given)	-40%[inhibitor]	nt	-3%	-5	-5	-0.1%	nt
O=C(c1ccccc1)N1CCN(C(=O)C2CC2)CC1	25%	0%	4%	2	-4	nt	-2.3
CS(=O)(=O)c1ccc(Cl)c(NC(=O)C2CCCN(C(=O)c3ccc(Cl)cc3)C2)c1 (stereo not given)	0%[15.4 µM]	nt	-9%	-15	-4	nt	nt

(more compounds)
structure	gsp ag	Sfp inh	gsp antagonist	TRPV1 potentiator	D2 PAM	ClpP mod	Menin MLL FP FL
COCC1CCCN(C(=O)c2ccc3oc(C(C)C)nc3c2)C1 (stereo not given)	1%	11%	8%	8	0	1.5%	5.0
CCN(CC)S(=O)(=O)c1ccc(C(=O)Nc2cc3oc4ccccc4c3cc2OC)cc1	2%	8%	3%	-10	-8	107%	2.2
O=C(O)CCCN1C(=O)/C(=C\c2ccc(-c3nc4ccccc4s3)o2)SC1=S	-35%[inhibitor]	50µM*	?	24	-6	-0.9%	?
Cc1ccc(C)c(N2N=C(C(=O)N(CC(C)C)c3c(N)n(Cc4ccccc4)c(=O)[nH]c3=O)CCC2=O)c1	12%	-3%	-26%	-6	-5	0.0%	4.5

Screens as filed in PubChem BioAssay.
